Calb FLC – C. albicans growth inhibition with fluconazole, primary screen, CaCi-2 strain, Alamar Blue fluorescence; C. albicans CaCi-2 (fluconazole-resistant clinical isolate) + fluconazole, 48 h; growth inhibition, % (no concentration beside the values); 300,000 compounds, 0.57% hits; AID 1979, 2009;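 active = most replicates above 75%; inconclusive = exactly half above 75%; inactive = most below 75%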;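 note: all wells also contain fluconazole at 8 µg/ml as a sub-toxic cotreatment; 0% = median of DMSO wells and 100% = median of geldanamycin control wells; wells of about 8 µL received 7.5 nL stock; the first replicate is given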
rRNA inh HTS – reduced GFP signal of wild-type E. coli, primary screen, bacterial rRNA inhibitor project, GFP/RFP fluorescence, OD600, single point; E. coli WT GFP vs humanized-ribosome RFP mutants, 24 h; hits give low values; DMSO median 0, no signal -100; AID 720706, 2013; GFP signal change (wild-type ribosome), % (test concentration not listed); 350,000 compounds, 1.6% hits;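 active = significant combined selectivity score with lowered wild-type GFP, culture density cut under 30%, mutant RFP and density less affected; inactive = any of these conditions unmet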; note: one replicate is shown; some compounds called inactive have numbers as strong as hits
AF4-AF9 inh – inhibitors of AF4 peptide binding to AF9, primary screen, biochemical, AlphaScreen, biotin-AF4 peptide, FLAG-AF9, single point | Protein AF-9 (Homo sapiens), P42568 | inhibition, % at 10 µM | 350,000 compounds, 0.47% hits;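 active = every replicate reaching a set inhibition limit, whatever the replicate mean, cut at about 25% in these data; inconclusive = mean inhibition reaches that limit but some replicates miss it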;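 note: 0% = plate neutral control median and 100% = total signal loss; the record names both 10 and 1 µM as test concentration; the first replicate is given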
Target sequence (P42568 whole entry, looked up): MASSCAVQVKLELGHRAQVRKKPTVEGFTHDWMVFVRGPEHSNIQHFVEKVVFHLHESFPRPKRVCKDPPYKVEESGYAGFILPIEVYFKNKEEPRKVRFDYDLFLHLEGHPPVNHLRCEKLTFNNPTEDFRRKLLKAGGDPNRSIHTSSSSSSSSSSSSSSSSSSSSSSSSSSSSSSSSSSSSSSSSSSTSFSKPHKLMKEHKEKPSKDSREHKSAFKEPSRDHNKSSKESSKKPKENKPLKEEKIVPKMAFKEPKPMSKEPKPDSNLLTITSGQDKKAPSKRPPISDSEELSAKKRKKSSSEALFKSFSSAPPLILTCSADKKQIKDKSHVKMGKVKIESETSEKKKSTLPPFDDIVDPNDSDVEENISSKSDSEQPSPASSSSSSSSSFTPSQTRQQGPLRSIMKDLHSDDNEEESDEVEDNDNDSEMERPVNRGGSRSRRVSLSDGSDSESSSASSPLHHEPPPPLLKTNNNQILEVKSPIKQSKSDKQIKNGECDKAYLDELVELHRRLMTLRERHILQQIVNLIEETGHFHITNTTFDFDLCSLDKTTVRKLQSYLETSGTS
Beta apoptosis – inhibitors of cytokine-induced beta cell apoptosis, primary screen, luminescence; protection from apoptosis, % (concentration not given with the values); INS-1E cytokine-induced death, ATP luminescence, 48 h; percent of positive-control rescue, neutral wells zero; AID 435005, 2010; 300,000 compounds, 0.8% hits;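 active = all replicates at 75% or more, or half of them and the mean; inconclusive = half reach 75% but not the mean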;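 note: 0% = cytokine-treated negative control wells and 100% = positive control rescue; higher means more ATP so stronger rescue from cytokine killing; wells of about 40 µL received 100 nL stock; the first replicate is given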
Vif TR-FRET – inhibitors of Vif binding to APOBEC3G peptide, primary screen, biochemical, TR-FRET, GST-Vif 1-94, biotin-A3G peptide, dose response retest (AID 1117319); TR-FRET GST-Vif / biotin-A3G peptide binding; higher % means a stronger effect; test concentration not given here; strong numbers were not always called active; inhibition, %; hits with a dose series show IC50 in µM; 260,000 compounds, 0.57% hits; Virion infectivity factor (Human immunodeficiency virus type 1 group M subtype B (isolate …;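 active = above the screen mean plus three standard deviations and confirmed in dose response; inconclusive = results disagree or hit not tested in dose response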;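 note: Vif residues 1-94 fused to GST binding biotinylated APOBEC3G peptide 110-148; 0% = full assay without inhibitor and 100% = GST in place of GST-Vif; retest series ran down from 100 µM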
T cruzi repl – inhibitors of intracellular T. cruzi growth, primary screen, luminescence, NIH3T3 host cells | 300,000 compounds, 1.4% hits | inhibition, % (concentration not given with the values) | AID 1885, 2009 | T. cruzi beta-gal in NIH3T3, 90 h;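 active = mean inhibition across valid replicates above about 55%, limit read from the data; inconclusive = mean below that limit but half or more replicates reach it; inactive = mean below it, under half of replicates reach it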;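 note: signal also drops with host cell toxicity which is not excluded here; 0% = plate median of DMSO wells and 100% = zero luminescence signal; higher percent means less beta-gal luminescence so fewer parasites; stock transfer was 50 nL into about 50 µL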
A1 inh – caspase 3/7 activation in MEF A1-2A-BIM cells, primary screen, A1 inhibitor project, cell-based, luminescence, HTS. Caspase-Glo 3/7 luminescence, 3 h; percent of clofoctol response, vehicle zero. caspase activation, % (concentration not given with the values). 330,000 compounds, 0.066% hits;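 active = over half of replicate activation scores above 10%, or exactly half above 10 with the replicate mean above 10; inconclusive = replicate mean below 10 yet half the replicates above 10; inactive = over half of replicates below 10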;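 note: wells of about 30 µL received 50 nL stock; many hits fall short of the cut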
RanGTP-Imp inh – inhibitors of RanGTP-importin-beta interaction, primary screen, biochemical, FRET, CFP-Ran, YFP-importin-beta, homogeneous; inhibition, % (no concentration beside the values); cell-free CFP-Ran/YFP-importin-beta FRET ratio; 300,000 compounds, 1.1% hits;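 active = most replicates above 15%; inconclusive = exactly half above 15%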;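 note: 0% = DMSO wells and 100% = Ran loaded with GDP instead of GTP; wells of about 40 µL received 100 nL stock; the first replicate is given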
rRNA inh HTS OD600 – also measured in rRNA inh HTS; calls as there; OD600 change, %; measured here: OD600 growth;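 optical density of the mix in the first replicate; 0 = DMSO median and -100 = no signal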
rRNA inh HTS RFP – further read-out of rRNA inh HTS, marked with its call; RFP signal change, %; measured here: RFP humanized mutant strains;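 first replicate; 0 = DMSO median and -100 = no signal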
* hit, by the source's call; u = inconclusive; x = not tested or not shown; & = joins results of further samples. This is a subset (hit frequency here may not be typical).

SMILES | Calb FLC | rRNA inh HTS | rRNA inh HTS OD600 | rRNA inh HTS RFP | AF4-AF9 inh | Beta apoptosis | Vif TR-FRET | T cruzi repl | A1 inh | RanGTP-Imp inh
COCCN(C(=S)Nc1ccccc1OC)C(C)c1cccs1 (stereo unspecified) | -9 | -14 | 1 | 2.5 | 1.4 | -13 | 3% | 6 | 0.5 | -1.5
Cc1ccc(C2=NOC(C)(c3nnc(Cc4ccccc4)o3)C2)cc1 (stereo unspecified) | 0 | 6 | 3 | -0.3 | -0.8 | -2 | x | 18 | 0.2 | -1.1
COC(=O)c1ccc(NC(=O)CNS(=O)(=O)c2cccs2)cc1 | -8 | x | x | x | x | -2 | -3% | 1 | 0.6 | -2.8
O=C(CCn1nc(-c2ccccc2)ccc1=O)N1CCCC1 | -6 | -1 | 6 | 5.4 | -1.6 | -9 | 75% | -3 | -0.5 | -0.9
Cn1c(O)c(C(C#N)=C2N=c3ccccc3=N2)c2ccccc21 | -19 | x | x | x | x | 0 | -2% | -6 | -0.2 | 3.5
COc1ccc(S(=O)(=O)CC2(O)CCN(C(=O)CC(C)C)CC2)cc1 | -2 | 10 | -5 | -2.9 | -0.3 | -4 | -7% | -17 | -0.3 | -2.9
CC(C)N(Cc1nc(-c2ccccc2)no1)C(=O)CN(C)S(=O)(=O)c1ccccc1 | -28 | x | x | x | x | x | 5% | 5 | -0.1 | 3.7
Cc1ccc(NC(=O)CCS(=O)(=O)c2ccc(Br)s2)cc1 | -7 | x | x | x | -3.7 | 5 | 1% | -7 | 0.8 | -1.9
C/C(CC(C)(C)C1CCCCC1)=N\NC(N)=S | 104* | x | x | x | x | x | 0% | 56* | -0.3 | -2.0
O=C(NN1C(=O)C2C3CCC(O3)C2C1=O)c1ccc(Br)o1 (stereo unspecified) | -4 | 2 | 5 | -2.6 | 1.2 | 7 | 18% | 8 | 0.3 | u

Single records, as listed above. Order of screens: Calb FLC, rRNA inh HTS, rRNA inh HTS OD600, rRNA inh HTS RFP, AF4-AF9 inh, Beta apoptosis, Vif TR-FRET, T cruzi repl, A1 inh, RanGTP-Imp inh
O=C(NN1C(=O)C2C3CCC(O3)C2C1=O)c1ccc(Br)o1 (stereo unspecified) across the screens: -4, 2, 5, -2.6, 1.2, 7, 18%, 8, 0.3, u
Cn1c(O)c(C(C#N)=C2N=c3ccccc3=N2)c2ccccc21 across the screens: -19, x, x, x, x, 0, -2%, -6, -0.2, 3.5
COC(=O)c1ccc(NC(=O)CNS(=O)(=O)c2cccs2)cc1 across the screens: -8, x, x, x, x, -2, -3%, 1, 0.6, -2.8
COc1ccc(S(=O)(=O)CC2(O)CCN(C(=O)CC(C)C)CC2)cc1 across the screens: -2, 10, -5, -2.9, -0.3, -4, -7%, -17, -0.3, -2.9
Cc1ccc(C2=NOC(C)(c3nnc(Cc4ccccc4)o3)C2)cc1 (stereo unspecified) across the screens: 0, 6, 3, -0.3, -0.8, -2, x, 18, 0.2, -1.1

(next part)
SMILES | Calb FLC | rRNA inh HTS | rRNA inh HTS OD600 | rRNA inh HTS RFP | AF4-AF9 inh | Beta apoptosis | Vif TR-FRET | T cruzi repl | A1 inh | RanGTP-Imp inh
O=C(NC(=S)NNC(=O)c1ccccc1O)c1cccs1 | 16 | -4 | -11 | -1.8 | -1.0 | 5 | x | 1 | -0.3 | 2.8
CCSc1nnc(-c2ccncc2)o1 | -6 | x | x | x | x | -7 | -1% | -21 | 0.0 | -1.7
CC1=NNC(=O)/C1=C\c1cn(-c2ccccc2)nc1-c1ccccc1 | 4 | 5 | 11 | -2.2 | -0.8 | 109* | 24% | -6 | 3.8 | x
CCN1C(=O)[C@H]2[C@@H](c3ccc(-c4ccc(C(C)=O)cc4)cc3)N[C@@](Cc3ccccc3)(C(=O)OC)[C@H]2C1=O | -2 | 3 | -2 | -1.7 | 2.0 | -4 | x | 16 | -0.6 | -2.8
N#C/C(=C\N1CCN(Cc2ccc3c(c2)OCO3)CC1)c1nc2ccccc2s1 | -52 | x | x | x | x | 0 | 30% | 53 | 0.0 | 20*
O=C1CCc2cc(NS(=O)(=O)c3ccc(F)cc3)cc3c2N1CCC3 | 3 | -21 | -17 | 4.6 | 1.8 | 1 | -1% | -5 | 1.2 | 6.5
COc1cc(C(=O)Nc2ccncc2)c([N+](=O)[O-])cc1OC | -2 | 2 | 2 | 0.3 | -1.4 | 0 | x | -9 | 0.7 | -0.3
CC(=O)N/N=C\c1ccccc1OC/C=C/c1ccccc1 | 1 | 15 | 17 | 1.6 | -0.6 | 3 | x | -15 | 0.9 | -0.4
COc1cc(/C=N/NC(=O)CCN2CCN(C(c3ccccc3)c3ccccc3)CC2)ccc1O | -19 | -17 | -14 | 0.3 | 18 | -7 | 4% | -40 | 0.9 | -3.6
Cc1cc2cc(CNC(=O)Cc3cccs3)ccc2n1C | -13 | x | x | x | x | 0 | x | 30 | -0.4 | 0.4
S=C(NCc1ccco1)Nc1cc(Cl)c(Cl)cc1Cl | -3 | -56 | -80 | -26 | -0.4 | -4 | x | 28 | 0.3 | 2.4
COc1ccc(N2CCN(C(=O)c3cc(=O)[nH]c4ccccc34)CC2)cc1 | 11 | 3 | 3 | 3.0 | -0.7 | 0 | x | -23 | 0.6 | 1.8
C/C(=N\NC(=O)c1cccc(Br)c1)c1cccnc1 | 18 | 3 | 1 | 1.2 | 0.8 | -1 | x | 0 | -0.5 | 1.9
CC1CCCCC12NC(=O)N(CC(=O)NCCc1c[nH]c3ccccc13)C2=O (stereo unspecified) | x | 9 | 7 | -0.9 | 2.2 | 0 | 1% | x | 0.2 | x
O=c1[nH]c2cc3c(cc2cc1CN(Cc1cccnc1)C(=S)NCc1ccco1)OCO3 | -10 | 14 | 15 | 1.1 | 0.2 | 0 | -6% | 9 | -0.9 | -3.6
CCn1c(SCC(=O)c2ccccc2)nnc1-c1cccnc1 | -11 | x | x | x | -2.5 | 0 | -1% | -19 | -0.3 | -1.4
CC1(C)Cc2c(sc(NC(=O)COc3ccccc3)c2C#N)C(C)(C)N1 | u | -6 | -7 | 0.3 | -1.2 | x | 11% | 4 | 0.4 | -0.2
CCOC(=O)C1=C(C)NC2=C(C(=O)c3ccccc32)C1c1ccc([N+](=O)[O-])o1 (stereo unspecified) | 2 | 10 | 23 | 1.8 | 11 | -12 | u | 58* | -0.6 | 0.5
Cc1ccc(NC(=O)C2CCN(S(=O)(=O)c3cccs3)CC2)cc1 | -7 | -10 | -12 | -0.7 | -0.6 | -3 | 17% | 5 | 1.2 | -1.0
CN(C(=O)COC(=O)c1ccc(Cl)c(S(=O)(=O)N2CCCCCC2)c1)C1CCS(=O)(=O)C1 (stereo unspecified) | x | -3 | -7 | -1.6 | -0.6 | -1 | x | x | 0.5 | x
O=C(C(Cl)c1ccccc1)N1CCOCC1 (stereo unspecified) | 3 | 10 | 17 | 0.2 | -1.4 | x | 1% | -14 | -1.1 | 6.4
O=C(CCN1CCOCC1)c1ccc2c(c1)OCCO2 | 6 | x | x | x | x | -16 | x | 9 | 0.0 | 2.8
CCOC(=O)/C=C/C(=O)Nc1ccc(S(=O)(=O)Nc2cc(C)on2)cc1 | 13 | -9 | -8 | -0.8 | -25 | -3 | x | -8 | 0.0 | -2.8
CC(=O)C1=C(O)C(=O)N(c2ccc(S(N)(=O)=O)cc2)C1c1ccc([N+](=O)[O-])cc1 (stereo unspecified) | -9 | x | x | x | x | -4 | 3% | -15 | 0.0 | 1.4
O=C(NNC(=S)NCc1ccco1)c1ccccc1Br | 4 | 1 | 7 | 0.6 | -11 | -6 | x | -44 | 0.1 | 0.5
COCCCNC(=S)Nc1ccc2nc3n(c(=O)c2c1)CCCCC3 | -1 | -6 | -6 | -1.4 | -1.5 | -2 | -4% | -10 | 1.0 | -3.5
CN(CC(=O)O)S(=O)(=O)c1ccc2c(c1)n(C)c(=O)c(=O)n2C | -14 | x | x | x | -6.1 | 3 | 1% | -12 | 0.7 | 6.0
CCC(C)NCCC(=O)Nc1ccc(Cl)c(S(=O)(=O)Nc2ccc(Cl)cc2)c1 (stereo unspecified) | 24 | -59 | -75 | -19 | 6.5 | 5 | x | 0 | 0.6 | 1.7
CC1(C)OC(=O)C(=CNc2ccccn2)C(=O)O1 | 10 | 10 | 13 | 0.4 | -1.8 | -1 | 2% | -17 | 0.6 | 0.2
COc1ccc(CNC(=O)CN(c2ccccc2)S(=O)(=O)c2ccccc2[N+](=O)[O-])cc1 | 1 | -20 | -17 | 0.3 | 1.7 | 5 | 16% | 9 | -0.6 | -4.0
O=C(NC1CCCC1)c1ccccc1-c1ccccc1 | 1 | x | x | x | x | 1 | 7% | -4 | -0.3 | 3.1
O=C1C(c2ccccc2)NC(=S)N1C1CCCCC1 (stereo unspecified) | -2 | -4 | -9 | 0.1 | 0.8 | 7 | 0% | -13 | 1.1 | 3.4
C[C@@H]1CN([C@@H](C)CO)C(=O)c2cccc(NC(=O)C3CCCCC3)c2O[C@@H]1CN(C)Cc1ccc(Cl)c(Cl)c1 | x | -10&-14 | -18&-14 | 2.4&28 | 2.2&5.1 | -8 | x | x | 2.0 | x
CN(C)S(=O)(=O)c1ccc(N2CCCC2)c(C(=O)NCc2ccccc2)c1 | 1 | x | x | x | x | -5 | 24% | 2 | 0.5 | -0.9
COc1ccc(S(=O)(=O)N2CCOC2CNC(=O)C(=O)NCCc2c[nH]c3ccccc23)cc1C (stereo unspecified) | 2 | -15* | -16* | 2.6* | 8.4 | -10 | -4% | -16 | 0.2 | u
COC(=O)C(/C=N/O)NC(=O)c1ccccc1 (stereo unspecified) | -2 | 10 | 20 | -0.8 | -14 | 0 | 9% | -6 | 0.7 | 4.2
CCOc1ccc(NC(=O)CSc2ncc(-c3ccc(F)cc3)n2Cc2ccco2)cc1 | 0 | 11 | -3 | 0.3 | 39* | 4 | x | 6 | 0.5 | -2.4
O=C(CCCn1ncn2c(cc3occc32)c1=O)NCc1cccc(Cl)c1 | -3 | -6 | -12 | 1.3 | 1.3 | 12 | 8% | -2 | 0.5 | 2.8
CCOc1cc(N2CCOCC2)c(OCC)cc1NC(=O)COC(=O)CCn1c(C)csc1=O | -1 | 7 | 7 | -1.5 | 1.8 | x | -1% | -12 | -0.1 | 3.5
Cc1ccc2cc(CN(CCCO)S(=O)(=O)c3ccccc3F)c(=O)[nH]c2c1C | 1 | -5 | -18 | 2.5 | -2.8 | -4 | x | 8 | 0.3 | 2.5
